AF4-AF9 inh: inhibitors of human MLL-AF4/AF9 interaction; P42568; AlphaScreen, biotin-AF4 peptide binding to FLAG-AF9; inhibition, % at 10 µM; 0.47% of 350,000 active; AID 651704;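 active = every replicate reaching a set inhibition limit, whatever the replicate mean, cut at about 25% in these data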;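 also: 0% = plate neutral control median and 100% = total signal loss; the record names both 10 and 1 µM as test concentration; the first replicate is given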
Target sequence (P42568 whole entry, looked up): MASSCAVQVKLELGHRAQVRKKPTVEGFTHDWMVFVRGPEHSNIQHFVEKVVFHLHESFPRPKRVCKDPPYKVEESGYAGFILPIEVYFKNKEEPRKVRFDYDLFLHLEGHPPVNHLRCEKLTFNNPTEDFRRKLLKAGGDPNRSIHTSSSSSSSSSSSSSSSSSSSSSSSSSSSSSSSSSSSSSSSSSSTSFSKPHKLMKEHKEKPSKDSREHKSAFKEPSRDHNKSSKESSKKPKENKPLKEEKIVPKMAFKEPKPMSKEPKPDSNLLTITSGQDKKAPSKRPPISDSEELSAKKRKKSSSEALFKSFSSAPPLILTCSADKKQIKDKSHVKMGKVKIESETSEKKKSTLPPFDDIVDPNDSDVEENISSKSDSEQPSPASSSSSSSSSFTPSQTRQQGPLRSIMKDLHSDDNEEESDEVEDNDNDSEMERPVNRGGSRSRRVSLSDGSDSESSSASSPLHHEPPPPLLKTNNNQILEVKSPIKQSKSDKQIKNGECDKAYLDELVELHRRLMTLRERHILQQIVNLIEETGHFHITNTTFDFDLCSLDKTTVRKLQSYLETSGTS
* marks the source's active call; other numbers are inactive results. Some of the compounds tested. The share of hits here may be higher or lower than overall.

AF4-AF9 inh	compound
-0.6	C[C@@H]1CN([C@@H](C)CO)C(=O)c2cccc(NS(=O)(=O)c3cccs3)c2O[C@H]1CN(C)Cc1ccc(C(=O)Nc2ccccc2N)cc1
-4.3	CC(C)NC(=O)N(C)C[C@@H]1Oc2ccc(NS(=O)(=O)c3ccccc3)cc2CC(=O)N([C@@H](C)CO)C[C@H]1C
0.0	C[C@@H]1CN([C@H](C)CO)C(=O)c2cc(NC(=O)CCCCCC(=O)Nc3ccccc3N)ccc2O[C@H]1CN(C)C(=O)NC1CCCCC1
3.5	Cn1c(NCc2ccccc2F)nc2cc(-c3ccsc3)sc2c1=O
-3.1	O=C(NCC[C@@H]1CC[C@@H](NC(=O)C2CC2)[C@H](CO)O1)c1ccc(F)cc1
18	COc1ccccc1C#Cc1ccc2c(c1)[C@H]1NCC[C@H]1[C@@H](CO)N2
-12	COc1ccccc1-c1cnc2c(c1)C(=O)N([C@H](C)CO)C[C@@H](C)[C@H](CN(C)Cc1ccc(C(=O)O)cc1)O2
-1.9	CCOC(=O)[C@]12CCC=C1N(Cc1ccco1)C(=O)[C@H](CC(=O)N1CCN(C(=O)C3CC3)CC1)C2
-2.9	O=C(Nc1cc(F)ccc1F)N[C@@H]1CC[C@@H](CC(=O)N2CCc3ccccc3C2)O[C@@H]1CO
-0.5	CO[C@@H]1CN(C)C(=O)c2cc(NC(=O)C3CCC3)ccc2OC[C@H](C)N(C(=O)CN(C)C)C[C@H]1C
-1.5	COCC(=O)N1CC[C@@H]2[C@H](CO)Nc3ccc(-c4cccc(C(=O)N(C)C)c4)cc3[C@@H]21
-1.6	C[C@@H]1CCCCO[C@H](CN(C)C(=O)CCC(F)(F)F)[C@@H](C)CN([C@@H](C)CO)C(=O)c2cc(N(C)C)ccc2O1
-1.6	C[C@H]1CN([C@@H](C)CO)C(=O)Cc2cc(NS(=O)(=O)c3cccs3)ccc2O[C@H]1CN(C)C(=O)Nc1ccc2c(c1)OCO2
-1.4	O=C(C[C@H]1C[C@H]2c3cc(NS(=O)(=O)c4ccccc4)ccc3O[C@H]2[C@H](CO)O1)N1CCCCC1
0.7	CCNC(=O)C[C@@H]1CC[C@H](NC(=O)C2CCOCC2)[C@H](CO)O1
1.3	CCNC(=O)C1(C)CCN(C(=O)c2cccc(OC(C)=O)c2C)C1 (stereo not given)
-16	C[C@@H]1CCCCO[C@@H](CN(C)CC2CC2)[C@H](C)CN([C@H](C)CO)C(=O)c2cc(NC(=O)Cc3ccccc3)ccc2O1
-7.4	C[C@@H]1CN([C@@H](C)CO)C(=O)Cc2cc(NC(=O)CCC(F)(F)F)ccc2O[C@@H]1CN(C)C(=O)NC1CCCCC1
-0.9	CN(C)CCCNC(=O)C[C@H]1CC[C@H]2[C@@H](COC[C@H](O)CN2CC2CCCC2)O1
-1.3	Cc1noc(C)c1NC(=O)Nc1ccc2c(c1)C(=O)N(C)[C@H]1CC[C@@H](CC(=O)N(C)C)O[C@H]1CO2

Additional results.
AF4-AF9 inh	compound
-5.4	CC(C)CC#Cc1cnc2c(c1)C(=O)N([C@H](C)CO)C[C@H](C)[C@H](CN(C)C(=O)c1cnccn1)O2
6.5	O=C(Nc1cc(F)ccc1F)N1CC(=O)N2[C@@H](CO)[C@H](c3ccc(C#CC4CCCCC4)cc3)[C@@H]2C1
-5.3	CCc1nc2ccc(C(=O)N3CCCC(C(N)=O)C3)cn2c1N(C)Cc1ccc(OC)cc1 (stereo not given)
-1.9	N#C[C@@H]1[C@@H](c2ccccc2)[C@@H](CO)N1C(=O)c1cccnc1
0.0	C[C@@H](NC(=O)[C@@H]1[C@@H](CO)[C@@H]2Cn3c(ccc(C4=CCCCC4)c3=O)[C@H]1N2)c1ccccc1
1.6	C[C@H](CO)N1C[C@H](C)[C@H](CN(C)CC2CCCCC2)OCCCC[C@H](C)Oc2ccc(NC(=O)Cc3ccccc3)cc2C1=O
1.2	COC(=O)c1cnc(Nc2nc(C(N)Cc3ccc(Cl)cc3)cs2)nc1C(F)(F)F (stereo not given)
0.6	Nc1ncnc2c1ncn2[C@@H]1O[C@H](CNS(=O)(=O)c2cc3ccccc3s2)[C@@H](O)[C@H]1O
0.6	Clc1ccc2nc(-c3ccco3)c(Cc3ccsc3)n2c1
-0.8	Cc1ccc(S(=O)(=O)Nc2ccc3c(c2)CC(=O)N([C@H](C)CO)C[C@@H](C)[C@H](CN(C)Cc2ccccc2)O3)cc1
2.3	C[C@H](CO)N1C[C@H](C)[C@H](CN(C)Cc2ccc3c(c2)OCO3)OCCCC[C@H](C)Oc2ccc(NC(=O)Nc3ccc(C(F)(F)F)cc3)cc2C1=O
-0.2	COc1cccc(-c2ccccc2[C@@H]2[C@@H](CO)N(C(=O)Cc3ccccc3)[C@H]2C#N)c1
-0.4	CC(=O)[C@]12O[C@@]3(COC[C@H](c4ccccc4)N3C1=O)[C@H]1C(=O)N(c3ccccc3)C(=O)[C@H]12
1.1	Cc1ccc(CN(C)C(=O)c2cccc(S(=O)(=O)N3CCN(c4ccccc4)CC3)c2)cc1
-2.3	CCc1ccc(N2C=C(C(=O)OC)C(c3ccccc3F)C(C#N)=C2N)cc1 (stereo not given)
9.8	C[C@@H]1CN([C@@H](C)CO)S(=O)(=O)c2ccc(-c3ccncc3)cc2O[C@H]1CN(C)Cc1ccccc1
2.6	O=C(C[C@@H]1C[C@H]2c3cc(NC(=O)Nc4ccccc4F)ccc3O[C@H]2[C@H](CO)O1)NCc1ccccn1
-3.8	C[C@@H]1CN([C@H](C)CO)C(=O)Cc2cc(NC(=O)C3CC3)ccc2O[C@H]1CN(C)C(=O)Nc1ccc2c(c1)OCO2
-1.3	O=C(C[C@@H]1CC[C@H](NC(=O)C2CC2)[C@H](CO)O1)Nc1ccccc1
5.0	COc1cccc(S(=O)(=O)N(C)C[C@@H]2Oc3cc(C4=CCCCC4)ccc3S(=O)(=O)N([C@@H](C)CO)C[C@@H]2C)c1

Further entries:
AF4-AF9 inh	compound
-1.5	CCOC1=C2[C@H](c3ccc(CC)cc3)N(S(=O)(=O)c3ccc(C)cc3)C[C@H]2C(C#N)(C#N)C(C#N)(C#N)C1
-3.7	CC=Cc1ccc2n(c1=O)C[C@H]1[C@H](CO)[C@@H](C(=O)NCC3CC3)N(Cc3nccs3)[C@@H]21 (mixture of isomers)
-4.1	C[C@@H]1CN([C@H](C)CO)C(=O)c2cc(NS(=O)(=O)c3ccc(F)cc3)ccc2O[C@@H]1CN(C)Cc1ccncc1
-1.0	C[C@H]1CN([C@@H](C)CO)C(=O)Cc2cc(NC(=O)C3CC3)ccc2O[C@H]1CN(C)CC1CCCCC1
-18	COc1ccc(S(=O)(=O)N2CCOC2CNC(=O)C(=O)NCc2ccccn2)cc1OC (stereo not given)
-0.8	CC(=O)N1CC2(C1)[C@H](c1ccc(-c3ccc(F)cc3)cc1)[C@@H](CO)N2C(C)=O
5.0	Cc1cc(C)cc(C(O)c2ncc(-c3ccccc3)[nH]2)c1 (stereo not given)
-0.9	CCCN1C[C@@H](C)[C@H](OC)CN(C)C(=O)c2cc(NC(=O)C3CC3)ccc2OC[C@H]1C
1.6	CN1c2ccc(-c3ccccc3)cc2[C@@H]2[C@@H](CCN2C(=O)Cc2ccccn2)[C@@H]1CO
0.2	Cc1noc(C)c1S(=O)(=O)N(C)C[C@H]1OCc2cn(nn2)CCCC(=O)N([C@H](C)CO)C[C@H]1C
27*	O=C(NCC[C@H]1CC[C@H](NS(=O)(=O)c2ccc(Cl)cc2)[C@@H](CO)O1)Nc1ccc(F)cc1
-1.9	COCCCNC(=O)CC1C[C@H](C(=O)N2CCOCC2)[C@@]2(C)c3[nH]c4ccc(OC)cc4c3CCN2C1=O (stereo not given in full)
1.4	CCNC(=O)C[C@H]1CC[C@H]2[C@@H](COC[C@@H](O)CN2C(=O)c2cccnc2)O1
-3.8	COc1ccc(OC(F)(F)F)cc1CC1(C)C(=O)Nc2cccc(Cl)c21 (stereo not given)
4.4	CN1C(=O)c2cc(NC(=O)c3cccc(C(F)(F)F)c3)ccc2OC[C@@H]2O[C@@H](CC(=O)NCCN3CCCC3)CC[C@H]21
-12	CO[C@@H](CN(C)S(=O)(=O)c1ccc(Cl)cc1)[C@@H](C)CN(Cc1ccccc1Cl)[C@@H](C)CO
-5.6	O=S(=O)(Cc1ccccc1)N1CCCCN2[C@H](CO)[C@H](c3ccc(-c4ccccc4)cc3)[C@@H]2C1
-0.3	COC(=O)[C@]12C[C@H](CC(=O)NCc3cccc(C(F)(F)F)c3)C(=O)N(Cc3ccc4c(c3)OCO4)C1=C[C@H](C(C)(C)C)O[C@@H]2C
-2.5	Cc1noc(C)c1NC(=O)Nc1ccc2c(c1)C(=O)N([C@H](C)CO)C[C@@H](C)[C@H](CN(C)C)OCCCC[C@@H](C)O2
1.5	CC=Cc1ccc2n(c1=O)C[C@H]1[C@H](CO)[C@@H](C(=O)NCc3ccccc3F)N(CC)[C@@H]21 (mixture of isomers)

(next part)
AF4-AF9 inh	compound
3.5	O=C(C[C@H]1CC[C@@H]2[C@H](COC[C@H](O)CN2Cc2cc(F)ccc2F)O1)NCc1ccc(Cl)cc1
0.2	CCCCCCCCN1C(=O)[C@H](CC(=O)NCCCN2CCCC2=O)C[C@@]2(C(=O)OC)CCCCC=C12
-2.4	O=C(C[C@H]1CC[C@@H](NC(=O)c2cccc(F)c2)[C@@H](CO)O1)NCc1ccccc1
-5.4	CC(=O)N(C)C[C@@H]1Oc2ncc(C#Cc3ccccn3)cc2C(=O)N([C@H](C)CO)C[C@H]1C
0.0	Cc1cc(C(=O)Nc2ccc3c(c2)C(=O)N(C)[C@H]2CC[C@@H](CC(=O)N[C@H](C)c4ccccc4)O[C@@H]2CO3)no1
-0.7	Cc1cccc(NS(=O)(=O)c2cccc(C(=O)NCC3(N4CCOCC4)CCCCC3)c2)c1
3.3	N#C[C@@H]1[C@@H](c2ccccc2-c2cccc(F)c2)[C@H](CO)N1C(=O)NC1CCCC1
-2.6	COCC(=O)N[C@@H]1C=C[C@H](CC(=O)NCc2ccc(Cl)cc2)O[C@H]1CO
-0.1	Cc1ccc(S(=O)(=O)NCC[C@H]2CC[C@H](NC(=O)CC3CC3)[C@H](CO)O2)cc1
0.9	C[C@@H]1CN([C@@H](C)CO)S(=O)(=O)c2ccc(-c3cccc(C#N)c3)cc2O[C@H]1CN(C)C(=O)c1cccnc1
-3.0	CN1CCN(c2cccc3c2S(=O)(=O)N[C@H](Cc2ccccc2)CO3)CC1
-0.7	COc1ccc(S(=O)(=O)Nc2ccc3c(c2)C(=O)N([C@H](C)CO)C[C@H](C)[C@H](CN(C)C(=O)CCC(F)(F)F)OCCCC[C@H](C)O3)cc1
2.5	CN1CCN(C(=O)C[C@H]2CC[C@@H]3[C@H](COc4ccc(NC(=O)C5CC5)cc4C(=O)N3C)O2)CC1
-1.2	COc1ccc(CNS(=O)(=O)c2cc(Br)ccc2Br)c(OC)c1
-14	COc1ccccc1NC(=O)N(C)C[C@H]1OCc2ccccc2-c2ccccc2C(=O)N([C@@H](C)CO)C[C@@H]1C
-2.6	C[C@H](CO)N1C[C@H](C)[C@H](CN(C)C(=O)Cc2cccnc2)Oc2ncc(C#CC3(O)CCCC3)cc2C1=O
-0.2	C[C@@H]1CN([C@@H](C)CO)C(=O)Cc2cc(NC(=O)Cc3ccccc3)ccc2O[C@@H]1CN(C)Cc1ccc(C(F)(F)F)cc1
-1.3	CN1CCN(C(=O)C[C@H]2C[C@H]3c4cc(NC(=O)Cc5ccncc5)ccc4O[C@H]3[C@H](CO)O2)CC1
0.8	CO[C@@H]1CN(C)C(=O)c2ccc(NC(=O)Nc3ccccc3F)cc2OC[C@H](C)N(C)C[C@@H]1C
-0.3	CCOC(=O)[C@]12CCC=C1N(Cc1ccc3c(c1)OCO3)C(=O)[C@H](CC(=O)NCc1cccc3ccccc13)C2

(list continues)
AF4-AF9 inh	compound
0.5	COCC(=O)N1CC(=O)N2[C@H](CO)[C@H](c3ccc(C#CC4CCCCC4)cc3)[C@H]2C1
33*	C[C@@H]1CN([C@@H](C)CO)C(=O)c2cc(N(C)C)ccc2O[C@@H]1CN(C)Cc1ccc(Cl)c(Cl)c1
-0.4	Cc1ccccc1S(=O)(=O)N1C[C@H](O)COC[C@H]2O[C@@H](CC(=O)NCCc3ccccc3)CC[C@@H]21
0.6	CCOC(=O)C1=C(C(=O)OCC)C2N(Cc3ccc(C#N)cc3)c3ccccc3[C@@]23C[C@@H](C(=O)OC)N(S(=O)(=O)c2cccs2)C3=N1 (stereo not given in full)
-0.2	COc1ccc(CN(C)C[C@@H]2Oc3c(NS(=O)(=O)c4ccc(OC)cc4)cccc3C(=O)N([C@H](C)CO)C[C@H]2C)cc1

In the list so far, these have an aryl methoxy group.
AF4-AF9 inh	compound
18	COc1ccccc1C#Cc1ccc2c(c1)[C@H]1NCC[C@H]1[C@@H](CO)N2
-12	COc1ccccc1-c1cnc2c(c1)C(=O)N([C@H](C)CO)C[C@@H](C)[C@H](CN(C)Cc1ccc(C(=O)O)cc1)O2
-5.3	CCc1nc2ccc(C(=O)N3CCCC(C(N)=O)C3)cn2c1N(C)Cc1ccc(OC)cc1 (stereo not given)
-0.2	COc1cccc(-c2ccccc2[C@@H]2[C@@H](CO)N(C(=O)Cc3ccccc3)[C@H]2C#N)c1
5.0	COc1cccc(S(=O)(=O)N(C)C[C@@H]2Oc3cc(C4=CCCCC4)ccc3S(=O)(=O)N([C@@H](C)CO)C[C@@H]2C)c1
-18	COc1ccc(S(=O)(=O)N2CCOC2CNC(=O)C(=O)NCc2ccccn2)cc1OC (stereo not given)
-1.9	COCCCNC(=O)CC1C[C@H](C(=O)N2CCOCC2)[C@@]2(C)c3[nH]c4ccc(OC)cc4c3CCN2C1=O (stereo not given in full)
-3.8	COc1ccc(OC(F)(F)F)cc1CC1(C)C(=O)Nc2cccc(Cl)c21 (stereo not given)
-0.7	COc1ccc(S(=O)(=O)Nc2ccc3c(c2)C(=O)N([C@H](C)CO)C[C@H](C)[C@H](CN(C)C(=O)CCC(F)(F)F)OCCCC[C@H](C)O3)cc1
-1.2	COc1ccc(CNS(=O)(=O)c2cc(Br)ccc2Br)c(OC)c1
-14	COc1ccccc1NC(=O)N(C)C[C@H]1OCc2ccccc2-c2ccccc2C(=O)N([C@@H](C)CO)C[C@@H]1C
-0.2	COc1ccc(CN(C)C[C@@H]2Oc3c(NS(=O)(=O)c4ccc(OC)cc4)cccc3C(=O)N([C@H](C)CO)C[C@H]2C)cc1
